Sa ugtP lethal = compounds lethal to S. aureus RN4220 ugtP deletion mutant; hit rate 0.54% among 330,000; OD600 growth, 16 h; some inactives read as strong as hits; growth inhibition, % (concentration not given with the values);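 active = z-score under -3 and OD600 up to 0.15 on both plates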;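 also: plate controls were untreated wells for no effect and antibiotic for full effect; wells of about 80 µL received 100 nL stock; the first replicate is given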
BJeLR lethal = BJeLR cell viability loss | hit rate 0.17% among 300,000 | inhibition, % (test concentration not listed) | BJeLR (HRASV12) viability, CellTiter-Glo ATP luminescence, 48 h; reference of the scale not given here;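 active = replicate mean above 50%; inconclusive = above 50% but judged a plate artefact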;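 also: 50 nL library stock added to about 25 µL; numbers are from one replicate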
PrP 5UTR inh = suppresses PrP 5' UTR mRNA reporter expression | inhibition, % (no concentration beside the values) | hit rate 0.35% among 340,000 | cell-based PrP 5' UTR mRNA reporter, plate reader;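 active = every replicate at 50% or more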;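 also: 0 = median of the neutral control wells; tested in H4 reporter cells; numbers are from one replicate; inactives centre near -14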
Mtb hypoxia inh = inhibitors of hypoxia-regulated fluorescent reporter in Mycobacterium tuberculosis | M. tuberculosis hypoxia-regulated fluorescent reporter, fluorescence | AID 1159583 | hit rate 0.1% among 300,000 | fluorescence inhibition, % (test concentration not listed);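 active = 35 to 45% if threefold the growth effect, above 45% if 1.5-fold the growth effect; inactive = the rest, general growth blockers included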;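 also: wells of about 50 µL received 100 nL stock; 0% = vehicle wells and 100% = reference inhibitor wells; whole bacteria with a GFP reporter of the hypoxia response; strong numbers were not always called active; many hits fall short of the cut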
Autofluor counter = counter-screen for toxin protease inhibitors: compound fluorescence. AID 624483. fluorescence intensity (concentration not given with the values). compound autofluorescence counterscreen, microsphere flow cytometry; stronger effect = higher value. hit rate 3.1% among 360,000;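 active = at least 3 SD above the mean of all compounds, about 16000 in these data; inconclusive = too few beads counted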;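 also: 100 nL of 1 mM stock went into each well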
Sa RN4220 lethal = S. aureus RN4220 growth inhibition; inhibition, % (no concentration beside the values); hit rate 0.33% among 330,000; OD600, 16 h; AID 1259311;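 active = z-score of -3 or lower and OD600 up to 0.18 on both plates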;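 also: plate controls were untreated cells for no effect and reference antibiotic for full effect; stock transfer was 100 nL into about 80 µL; one replicate is shown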
Mtb hypoxia inh growth = recorded beside Mtb hypoxia inh, whose call it bears; growth inhibition, %; measured here: M. tuberculosis growth (absorbance);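 0% = vehicle and 100% = reference antibiotic; read after six days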
Numbers without * were called inactive; ? = inconclusive; · = not tested or not shown.

SMILES	Sa ugtP lethal	BJeLR lethal	PrP 5UTR inh	Mtb hypoxia inh	Mtb hypoxia inh growth	Autofluor counter	Sa RN4220 lethal
CCN1C(=O)C2(C(C#N)=C(N)Oc3n[nH]c(-c4ccccc4)c32)c2ccccc21 (configuration not stated)	9	-11	-20	5	9	16247*	28
Nc1nnnn1/N=C/c1ccc(O)cc1	·	-10	-14	·	·	9263	·
O=C(Nc1ccc(F)cc1F)N1CCN(CCc2ccccc2)CC1	7	-8	-14	7	-7	5130	2.6
O=C(NCCCl)Nc1ccccc1NS(=O)(=O)c1cccs1	4	·	-18	13	11	3755	5.8
C=CCn1c(SCc2nc3sc4c(c3c(=O)[nH]2)CCCC4)nc2ccccc2c1=O	-9	-10	-21	3	-5	9293	-0.1
CC(=O)c1cc2c(O)c(O)ccc2o1	1	19	-3	10	5	9393	2.0
COc1cccc(/C=N/NC(=O)CNC(=O)c2ccc(S(=O)(=O)N3CCOCC3)cc2)c1OC	·	-3	-15	·	·	2968	·
O=C(CN1CCCCC1)Nc1ccccc1C(=O)NC1CC1	2	·	-11	9	-2	4425	1.9
CCCc1cc(=O)[nH]c(SCC(=O)N2CCc3ccccc32)n1	-2	·	-18	4	9	3716	8.5
Cc1cc(C)n(CCc2nc(-c3ccc(F)cc3)cs2)n1	3	-1	-26	5	-4	2116	4.6
NS(=O)(=O)c1cccc(-n2cnnn2)c1	5	2	-10	-1	2	4191	1.6
O=C(C[n+]1ccc(/C=N/O)cc1)NCc1ccccc1	·	-4	-2	·	·	6278	·
COCCNC(=O)c1c[nH]c2ccc(S(=O)(=O)N(C)c3ccc(C)c(C)c3)cc2c1=O	7	0	-1	10	0	2900	8.8
Cc1cc(C)c(S(=O)(=O)Nc2ccc[nH]c2=O)c(C)c1	-15	-1	-12	·	·	3968	-1.0
O=C(CSc1nc2c(c(=O)n1-c1ccccc1)SCC2)N1CCOCC1	-1	4	1	12	7	6077	-12
Nc1cc[n+](CC(=O)c2ccc3c(c2)OCCO3)cc1	0	15	-51	2	13	2637	1.6
O=C(COC(=O)c1ccc(O)cc1O)NC(=O)c1ccccc1	2	·	4	-3	-1	?	1.2
N#CCCN(Cc1cccnc1)S(=O)(=O)c1ccc2ccccc2c1	4	·	-13	9	1	·	6.5
COc1ccc(NC(=O)c2cc3c(=O)n4ccccc4nc3n2C)c(OC)c1	2	11	-35	9	13	3204	12
NC(=O)c1ccccc1NC(=O)Nc1ccc(F)c(Cl)c1	0	2	-8	11	8	4454	2.8
Cc1ccc(CSc2nnc(C)c(=O)n2N)cc1	12	-10	-18	3	1	10048	4.7
CC(=O)c1ccc(N2CCN(C(=O)c3cc(-c4ccc5c(c4)OCO5)nc4ccccc34)CC2)cc1	101*	11	-21	·	·	4845	-9.9
CCCCOC(=O)Cc1c(O)c2ccccc2[nH]c1=O	-5	-12	-19	·	·	2490	20
CN(Cc1c(F)cccc1Cl)C(=O)c1ccc2ccccc2n1	2	4	-2	4	9	3602	6.5
CCCn1ncc(OC)c(Cl)c1=O	-6	2	-23	5	6	21990*	4.5
CC(N)c1ccc(Cl)cc1Cl (configuration not stated)	2	2	-21	11	11	2418	2.2
O=C(OCc1nnc(-c2ccccc2)o1)c1ccc(-n2cnnn2)cc1	-7	-1	5	0	-1	?	-1.6
Cc1ccc(N=Cc2cc(Cc3ccccc3Cl)cc([N+](=O)[O-])c2O)c(O)c1	-7	-4	-16	-1	6	2038	6.6
CCN(C(=O)CSc1nnc(Nc2cccc(C)c2C)s1)C1CCS(=O)(=O)C1 (configuration not stated)	3	0	-13	12	7	2261	5.7
CN(C)C(=O)c1nc2ccc(Cl)cn2c1CN1CCCC(OCc2ccccc2)C1 (configuration not stated)	1	6	-29	-9	-9	2180	5.6
Nc1c2c(nc3ccc(Br)cc13)N(Cc1ccccc1)CC2	-4	-5	-22	-5	11	2711	1.7
CNCC(O)c1cc(OCc2ccccc2)c(OCc2ccccc2)cc1F (configuration not stated)	-35	2	-48	23	9	3783	-6.2
COc1cccc(CNc2nnnn2C)c1OC	1	-2	3	3	-3	3830	1.2
Cc1cccc(C(=O)Nc2cccc(NC(=O)c3ccccc3)c2)c1	1	7	-12	9	1	·	29
Cc1ccc(NC(=O)/C(C#N)=C/c2cc(C)n(-c3ccc(N4CCOCC4)c([N+](=O)[O-])c3)c2C)c(C)c1	·	7	-16	·	·	3186	·
CCOC(=O)N1C=CC(C)=C[C@@H]2[C@@H](N3C(=O)c4ccccc4C3=O)C(=O)N21	·	12	-24	·	·	2607	·

Taken from the entries so far (six entries):
SMILES	Sa ugtP lethal	BJeLR lethal	PrP 5UTR inh	Mtb hypoxia inh	Mtb hypoxia inh growth	Autofluor counter	Sa RN4220 lethal
CCCn1ncc(OC)c(Cl)c1=O	-6	2	-23	5	6	21990*	4.5
CC(N)c1ccc(Cl)cc1Cl (configuration not stated)	2	2	-21	11	11	2418	2.2
O=C(OCc1nnc(-c2ccccc2)o1)c1ccc(-n2cnnn2)cc1	-7	-1	5	0	-1	?	-1.6
Cc1ccc(N=Cc2cc(Cc3ccccc3Cl)cc([N+](=O)[O-])c2O)c(O)c1	-7	-4	-16	-1	6	2038	6.6
CCN(C(=O)CSc1nnc(Nc2cccc(C)c2C)s1)C1CCS(=O)(=O)C1 (configuration not stated)	3	0	-13	12	7	2261	5.7
CN(C)C(=O)c1nc2ccc(Cl)cn2c1CN1CCCC(OCc2ccccc2)C1 (configuration not stated)	1	6	-29	-9	-9	2180	5.6

Next part
SMILES	Sa ugtP lethal	BJeLR lethal	PrP 5UTR inh	Mtb hypoxia inh	Mtb hypoxia inh growth	Autofluor counter	Sa RN4220 lethal
Cc1cccc(-n2ccnc2SCC(=O)Nc2cccc(S(=O)(=O)NC3=NCCC3)c2)c1C	2	·	-8	2	0	5190	-4.4
Cc1cccc(NCc2nc(SCC(=O)Nc3ccccc3)n[nH]2)c1	3	2	-17	6	2	3647	-1.6
COc1ccc(N2C(=O)CC(C3CCCO3)C2=O)cc1 (configuration not stated)	3	-7	-20	-3	-4	4429	0.8
O=C1NC(=S)N/C1=C\c1cccnc1	7	1	7	8	6	3947	4.0
Cc1cccc(NC(=O)C2CCN(c3nc(C)cc(C)n3)CC2)c1	-6	-6	-20	1	4	4426	-2.1
O=C(NNc1c(Cl)cccc1Cl)c1ccno1	8	1	-13	3	0	3509	2.4
Cc1nnc(SCC(=O)NC2CCCCC2)n1N	0	·	-12	8	5	3088	2.4
Cc1c(Cl)cccc1NC(=O)CN1CCN(CCN=CC2=C(O)CC(c3ccccc3)CC2=O)CC1 (configuration not stated)	-2	-5	-1	0	-5	4798	-0.7
COc1ccc(S(=O)(=O)N2CCCCC2)cc1C(=O)N1CCCC1	·	5	-6	·	·	5250	·
Cc1ccc(C)c(S(=O)(=O)N2CCCCC2CCNC(=O)C(=O)NCCc2ccco2)c1 (configuration not stated)	·	-3	-33	·	·	?	·
O=C(CSc1ccc2nnc(-c3cccnc3)n2n1)Nc1ccccc1C(F)(F)F	-5	3	-11	11	19	6048	-1.5
CCCNC(=O)C1CCN(S(=O)(=O)c2ccc3c(c2)OCCO3)CC1	2	3	-12	0	4	?	-0.4
C=CCn1c(C)cc(C(=O)COC(=O)CNC(=O)c2ccccc2)c1C	0	10	-8	19	8	2186	3.8
O=c1[nH]c(C2CCN(S(=O)(=O)c3ccc([N+](=O)[O-])cc3)CC2)nc2c1nnn2Cc1ccccc1	-10	-6	-25	-2	10	3851	2.7
CC1(C)CC(=O)C2=C(C1)N=C1SCCC(=O)N1C2c1ccccc1 (configuration not stated)	1	-3	-62	6	1	12518	-0.5
O=C(NCc1ccncc1)C1CCN(S(=O)(=O)c2ccc(F)cc2)CC1	11	9	-22	15	9	3912	2.0
CCOC(=O)c1c(NC(=O)C(c2ccccc2)c2ccccc2)sc2c1C1CCN2CC1	-3	4	-29	17	17	10502	0.2
O=C(COC(=O)c1cccs1)Nc1ccc(F)c(F)c1	4	·	-13	15	6	·	8.9
COc1ccc(CN(CC2CCC(C(=O)O)CC2)C(=S)Nc2ccc(C)c(Cl)c2)cc1 (configuration not stated)	13	3	-20	14	12	3339	4.8
CCn1cc(C(=O)NC(C)C23CC4CC(CC(C4)C2)C3)cn1 (configuration not stated)	4	0	-1	·	·	7131	23
COc1ccc(NC(=O)c2cc3nc(-c4ccccc4)cc(-c4ccccc4)n3n2)c(OC)c1	-7	-3	-6	·	·	5024	-3.8
CCOc1cc(C=NNC(=O)C(=O)NCCCOC(C)C)cc(Br)c1O	-1	·	·	13	-3	·	0.7
COC(=O)[C@]1(Cc2ccccc2)N[C@H](CN(C)C(=O)NC(C)C)[C@@H]2C(=O)N(Cc3ccccc3)C(=O)[C@@H]21	-1	·	-11	0	-9	2810	2.6
O=C(Cn1nnc(-c2cc(Cl)ccc2-n2cnnn2)n1)N1CCCc2ccccc21	3	-1	5	1	5	2440	6.7
COc1ccc(S(=O)(=O)NC2CC2)cc1Br	-2	0	0	-3	8	2959	2.3
O=C(CSc1nc2ccccc2c(=O)n1CCCN1CCOCC1)NC12CC3CC(CC(C3)C1)C2	8	-4	-27	7	6	4074	12
O=C(NCCN1CCOCC1)C1CCC(CNS(=O)(=O)c2ccccc2)CC1 (configuration not stated)	2	13	-14	5	17	9155	3.8
CC(Sc1ccccc1)C(=O)NCC1COc2ccccc2O1 (configuration not stated)	4	2	-4	-8	-7	5123	5.9
CC(=O)Nc1cccc(-c2cn3ccc(C)cc3n2)c1	-9	-1	-82	-1	4	2292	-1.9
O=C(Nc1nnc(-c2ccc(Br)cc2)o1)c1cccc(N2C(=O)CCC2=O)c1	15	-2	-12	5	9	5040	37
CN(C)C(CNC(=S)Nc1ccc(Cl)cc1)c1cccnc1 (configuration not stated)	0	4	-15	13	5	2110	0.7
Cn1cccc1CNCCc1ccc(F)cc1	15	4	2	1	6	15295	8.2
O=C(NC1CCCC1)C(NS(=O)(=O)c1ccc(Br)s1)c1ccccc1 (configuration not stated)	3	11	-2	10	8	2073	1.6
COC(=O)C1=C(C)Nc2c(c(=O)n(C)c(=O)n2C)C1c1cccs1 (configuration not stated)	-6	-8	-5	7	15	3075	-16
CN(C)N=Nc1nc2c(c(=O)n(C)c(=O)n2C)n1CC1CO1 (configuration not stated)	4	-3	·	-3	-2	5945	2.4
CCOC(=O)c1[nH]c2ccc(OC)cc2c1NC(=S)N1CCN(C(=O)OCC)CC1	0	-2	-22	5	6	4308	0.7
CCOC(=O)c1c(C)[nH]c(C(=O)OCc2ccccc2)c1C	-1	-5	-108	10	11	6722	3.8
Cc1ccc(NC(=O)c2ccc3c(c2)CCN3S(C)(=O)=O)c(C)c1	·	2	-26	·	·	4133	·
S=C(NCCc1ccccn1)Nc1cccc(Cl)c1	0	6	-24	4	1	2616	2.6
O=C(CCCOc1ccc(Cl)cc1Cl)Nc1ccc(O)cc1C(=O)O	3	10	-2	14	13	3379	1.8
Cc1cnc(C(=O)Nc2ccc(C)c(S(=O)(=O)N3CCCCC3)c2)cn1	-1	·	-28	0	3	7737	2.7
COc1ccc(O)c(CN2CCC(n3nccc3NC(=O)c3ccccc3Cl)CC2)c1	-2	2	10	-8	16	6355	1.5
Cn1c(=O)c2[nH]c(SCC(=O)c3ccc(F)cc3)nc2n(C)c1=O	4	2	-32	-4	17	5558	-1.3
CC(=O)c1c(OCC(=O)O)ccc2c(C)cc(=O)oc12	-1	-4	-24	7	9	11886	0.2
CN(Cc1ccccc1)C(=O)c1cccc(NC(=O)Cc2ccc(NC(=O)C3CCN(C(=O)C4CCCCC4)CC3)cc2)c1	6	·	-22	-3	7	3456	1.9
COc1ccc2c(OC)c3ccoc3nc2c1OC	-2	-12	-1	·	·	5805	1.0
CN(C(=O)Nc1ccccc1)n1cnc2ccccc2c1=O	1	2	-7	13	-1	3282	0.9
Cc1ccc(/C=C2\SC(=S)N(c3c(C)n(C)n(-c4ccccc4)c3=O)C2=O)cc1	3	-12	-9	-9	2	8737	6.2
Cc1ccc(C)c(S(=O)(=O)N2CCN(C(=O)C(C)Sc3ccccc3)CC2)c1 (configuration not stated)	11	-9	-17	18	-2	4700	10
COC(=O)\C(C(C)=O)=C(/C=C/C=C/C=C/N(C)C)N(C)C	-1	-1	-10	·	·	2157	3.1
